# Assay outcomes (PubChem)
# P. yoelii liver: exo-erythrocytic parasite development inhibition – imaging, Malaria Box, P. yoelii, HepG2-A16-CD81EGFP, dose response (AID 602156); 4.8% of 5,700 active; calls after a first round at 10 µM; hits with a dose series show IC50 in µM; P. yoelii liver stage in HepG2-A16-CD81EGFP, imaging; first-round cut-off not given here; in the data active = a potency from the dose series;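 also: infected cells exposed to compound for 48 hours before fixation; stained parasite area by imaging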
# * hit, by the source's call; i = inactive.
P. yoelii liver | canonical_smiles
i | NC(=NN=Cc1ccc([N+](=O)[O-])cc1)NN=Cc1ccc([N+](=O)[O-])cc1
i | O=C(Nc1ccc(NC(=O)c2ccco2)cc1Cl)c1ccccc1
i | COc1ccc(C2CC(=O)C3=C(C2)NC(C)=C(C(=O)OC(C)C)C3c2ccccc2Br)cc1OC (stereo not drawn)
0.335µM* | CCOC(=O)C1=C(C)NC2=C(C(=O)C(C(=O)OCC)C(c3ccccc3OC)C2)C1c1ccc([N+](=O)[O-])cc1 (stereo not drawn)
i | CC1CC(C)CN(S(=O)(=O)c2ccc(C(=O)Nc3ccc(-c4nc5ccccc5o4)cc3)cc2)C1 (stereo not drawn)
i | CC(C)OCCCNc1sc(S(=O)(=O)c2ccccc2)nc1S(=O)(=O)c1ccc(Cl)cc1
i | COC(=O)c1c(-c2c(F)cccc2Cl)noc1C=CNc1ccccc1
i | O=C(NCCc1nc(-c2cccnc2)n[nH]1)C12CC3CC(CC(C3)C1)C2
i | Cn1nc(C(F)(F)F)c(-c2ccc(F)cc2)c1NC(=O)Nc1ccccc1
i | Cc1cccc(N(C)c2ccnc3c(-c4cccc(C(N)=O)c4)cnn23)c1
i | CCCC(C(=O)NC(C)(C)C)N1C(=O)c2cc(NC(C)=O)ccc2NC(=O)[C@@H]1c1ccccc1 (stereo partly drawn)
i | O=C(c1ccncc1)N1N=C(C(F)(F)F)CC1(O)c1cccc([N+](=O)[O-])c1 (stereo not drawn)
i | CCOC(=O)C1=NNC2C(=O)N(c3cccc(C)c3C)C(=O)C12 (stereo not drawn)
i | CN(C)c1cc[n+](Cc2ccccc2)cc1
i | CCN1/C(=C/c2cccc[n+]2C)C=Cc2cc(C)ccc21
i | O=C(O)C(Cc1ccc([N+](=O)[O-])cc1)NS(=O)(=O)c1ccc(OC(F)(F)F)cc1 (stereo not drawn)
i | CCC(c1nc2ccccc2c(=O)n1CC)N1CCN(C(=O)Nc2ccccc2C(F)(F)F)CC1 (stereo not drawn)
i | COc1ccc(C2CC(=O)C3=C(C2)NC(C)=C(C(=O)OC2CCCC2)C3c2ccc(F)cc2)cc1OC (stereo not drawn)
i | COC(C)(C)CNCc1cc2cc3c(cc2n(Cc2cccc(C(F)(F)F)c2)c1=O)CCC3
i | Clc1ccc(C[n+]2cc(-c3ccccc3)n3c2CCC3)cc1Cl
i | CCC(=O)c1c(C)n(-c2ccc(Br)cc2)c2ccc(O)cc12
i | O=C1c2ccccc2-c2nc3ccc(C(F)(F)F)cc3nc21
i | C=CC1CC23CC(C(OC(=O)CCC(=O)O)c4ccnc5ccc(OC)cc45)N2CCC13 (stereo not drawn)
i | CN(C)CCN1CCN(c2ccnc3cc4ccccc4cc23)CC1
i | COc1cc2c(-c3cc(Br)ccc3O)nc3c(c(Cc4ccccc4)nn3-c3ccccc3)c2cc1OC

# The final six entries of the part before come first, to join the parts.
P. yoelii liver | canonical_smiles
i | Clc1ccc(C[n+]2cc(-c3ccccc3)n3c2CCC3)cc1Cl
i | CCC(=O)c1c(C)n(-c2ccc(Br)cc2)c2ccc(O)cc12
i | O=C1c2ccccc2-c2nc3ccc(C(F)(F)F)cc3nc21
i | C=CC1CC23CC(C(OC(=O)CCC(=O)O)c4ccnc5ccc(OC)cc45)N2CCC13 (stereo not drawn)
i | CN(C)CCN1CCN(c2ccnc3cc4ccccc4cc23)CC1
i | COc1cc2c(-c3cc(Br)ccc3O)nc3c(c(Cc4ccccc4)nn3-c3ccccc3)c2cc1OC
i | O=[N+]([O-])c1ccc2nc(Nc3ccccc3)c(Nc3ccccc3)nc2c1
i | CC1CCN(Cc2c(O)ccc3cc(-c4nc5ccccc5s4)c(=O)oc23)CC1
i | CCN(CC)c1ccc(C=NNC(=O)c2ccc(Nc3nc(-c4ccccc4)cs3)cc2)c(O)c1
i | CCCOc1ccc2c(c1)C(=NN=C(N)N)c1cc(OCCC)ccc1-2
i | Cc1ccc(NC(=O)c2ccc(NCCCN3CCC(C)CC3)c([N+](=O)[O-])c2)cc1F
0.142µM* | Oc1cccc2ccc(Nc3ccccn3)nc12
i | COc1ccc(CCNC(=O)CC(=O)NN=Cc2ccc(Br)cc2)cc1OC
i | COc1ccc(-c2nc(-c3ccncc3)cnc2N)cc1OC
i | O=C1NC(=S)N/C1=C\C=C\c1ccc([N+](=O)[O-])o1
i | Cn1c(=O)n(C)c2cc(NC(=O)CCl)ccc21
i | CCN(CC)CCCC(C)Nc1cc(C=Cc2ccccc2Cl)nc2cc(Cl)ccc12 (stereo not drawn)
i | COCCCNc1nc2nonc2nc1N(C)C1CCOCC1
i | CCOC(=O)C1=C(C)NC2=C(C(=O)CC(C)(C)C2)C1c1ccc(Cl)cc1Cl (stereo not drawn)
i | CC1CC(=O)NN=C1c1ccc(NC(=O)c2ccccc2)cc1 (stereo not drawn)
i | CC(C)(C)c1ccc(CNC(=O)C(Cc2ccc(O)cc2)c2ccccc2)cc1 (stereo not drawn)
i | CC[n+]1c(/C=C/c2ccc(Cl)cc2)ccc2ccccc21
i | CC1CCCCN1CC(=O)N1CCN(C(=O)CN2CCCCC2C)CC1 (stereo not drawn)
i | CCn1ccccc1=Nc1cccc[n+]1CC
i | CCOc1ccc(NC(=O)C(C)CSc2nc3ccc(NC(=O)CC)cc3s2)cc1 (stereo not drawn)
i | CCCN(CCC)CCNC(=O)c1cc2c(-c3ccc(Cl)cc3)nn(C)c2s1
i | CSc1ccc(/C=C/C(=O)NC(=O)c2ccccc2O)cc1
i | CC(=O)c1cccc(S(=O)(=O)NCCCNc2nc3cc(C)cc(C)c3cc2C#N)c1
i | COC(=O)C1=C(O)/C(=C\c2cc(C)n(-c3ccccc3F)c2C)N=C1C
i | Clc1ccc(OCc2nc3ccccc3n2CCc2ccccc2)cc1
i | COc1ccc2c(c1)-c1c(ssc1=S)C(C)(C)N2C(=O)c1ccccc1F

# An excerpt of the results above:
P. yoelii liver | canonical_smiles
i | CC(=O)c1cccc(S(=O)(=O)NCCCNc2nc3cc(C)cc(C)c3cc2C#N)c1
i | COC(=O)C1=C(O)/C(=C\c2cc(C)n(-c3ccccc3F)c2C)N=C1C
i | Clc1ccc(OCc2nc3ccccc3n2CCc2ccccc2)cc1
i | COc1ccc2c(c1)-c1c(ssc1=S)C(C)(C)N2C(=O)c1ccccc1F

# Following part:
P. yoelii liver | canonical_smiles
i | CCCCNC(=O)C(c1cccc(OC)c1)N1C(=O)c2cc(Oc3ccccc3)ccc2NC(=O)C1CO (stereo not drawn)
i | C[n+]1ccccc1/C=C/c1cc(Br)ccc1O
i | O=C1NC(=Nc2ccccc2)SC1=Cc1ccc(F)c(Br)c1
i | CC(C)N(CC(=O)Nc1cc(C(C)(C)C)nn1-c1ccc(Cl)c(Cl)c1)C(=O)c1ccc(C(F)(F)F)cc1
i | COc1cccc(-c2ccc(O)c(CN(C)C3CCCCC3)c2)n1
i | O=C(c1c2c(nc3ccccc13)CCC2)N1CCc2ccccc21
i | Cc1cccc(NC(=O)c2ccc(N3CC4CC(C3)c3cccc(=O)n3C4)c(NC(=O)Cc3c(F)cccc3Cl)c2)n1 (stereo not drawn)
i | Cc1ccc(Nc2nc3nonc3nc2N(C)C)cc1Cl
i | O=C(Nc1ccc(N2CCCCC2)cc1)N1CCc2nc[nH]c2C1
i | CCN1c2ccccc2N(C)C1(C)c1ccccc1 (stereo not drawn)
i | CC(c1nc2ccccc2c(=O)n1-c1ccccc1Cl)N(Cc1ccccc1)C(=O)Nc1cccc(Br)c1 (stereo not drawn)
i | CCN1/C(=C/c2cccc[n+]2C)Sc2ccc(C)cc21
i | COc1ccc(C=C2SC(=Nc3ccccc3)NC2=O)cc1
i | COc1ccc(-n2c(SC(C)C)nc3sc4c(c3c2=O)CCN(C)C4)cc1
i | CN1CCN(c2nc(NCCNc3ccc([N+](=O)[O-])cc3)c3ccccc3n2)CC1
0.0108µM* | CCOC(=O)c1c[nH]c2c3c(ccc2c1=O)CCCC3
i | COc1ccc(C2CC(=O)C3=C(C2)NC(C)=C(C(=O)OC2CCCCC2)C3c2cccc(C)c2)cc1OC (stereo not drawn)
i | CC(C)CCNCC(O)Cn1c2ccc(Br)cc2c2cc(Br)ccc21 (stereo not drawn)
i | CC1=[N+](CC(=O)c2ccc(C)cc2)CCn2c(C)ccc21
i | CC(=NNC(=O)c1ccc(C)cc1)c1ccccn1
i | CCOC(=O)C1CCN(C(=S)Nc2ccc3nsnc3c2)CC1
i | CC(CCc1ccccc1)N1CC(c2cccc([N+](=O)[O-])c2)OC1=S (stereo not drawn)
i | CCN(CC)CCCN(Cc1cc2cc(OC)ccc2[nH]c1=O)C(=S)Nc1ccc(C)cc1
i | O=C1c2ccccc2-[n+]2ccc3c([nH]c4ccccc43)c21
i | CN(CCCNc1ccnc2cc(Cl)ccc12)C(=O)c1ccc(Cl)cc1
i | COc1ccccc1N1CCN(C(=O)CCCCSc2nnc3c4cc(F)ccc4n(Cc4ccc(F)cc4)c3n2)CC1
i | CCCCCN(C(=O)c1cccc(C(F)(F)F)c1)C(CC)c1nc2ccccc2c(=O)n1-c1ccccc1OC (stereo not drawn)
i | CN(Cc1ccccc1)C(=O)CCNS(=O)(=O)c1cc(Br)cnc1N
i | O=C1C=C(Nc2cccc(C(F)(F)F)c2)C(=O)c2ccccc21
i | COc1ccc(NC(=O)C2=C(C)Nc3c(C(=O)Nc4ccc(C)cc4)cnn3C2c2cccc(Cl)c2)cc1 (stereo not drawn)
i | C#CC(C)(C)NC(=O)c1ccc(-c2ccc(CC)cc2)cc1
i | CCOC(=O)c1c(C)[nH]c(C)c1S(=O)(=O)N1CCCC(C(=O)N2CCN(c3cccc(C)c3C)CC2)C1 (stereo not drawn)
0.776µM* | Cc1cc(OC(C)C(=O)N2CCc3ccccc32)ccc1Cl (stereo not drawn)
i | COc1cc(/C=C(\C#N)c2nc3ccccc3[nH]2)ccc1OCc1ccccc1Cl
i | CC1=NOC(=O)/C1=C\c1cccs1
i | O=C(CCl)Nc1ccc(N2CCCCCC2)cc1
i | CC(C)N(CC(=O)Nc1cc(C(C)(C)C)nn1-c1ccc(Cl)c(Cl)c1)C(=O)c1ccc(Cl)c(Cl)c1
i | CCN(CC)CCCC(C)Nc1ccnc2cc3ccccc3cc12 (stereo not drawn)
i | Cn1nc(C(=O)N2CCc3ccccc3C2)c2c1CCC(N1CCN(Cc3cccc(F)c3)CC1)C2 (stereo not drawn)
i | COC(=O)c1ccc(C2C3=C(CC(c4ccc(F)cc4)CC3=O)Nc3ccccc3N2C(=O)c2ccccc2)cc1 (stereo not drawn)
i | Nc1nnc(CCSc2ccc(Cl)cc2)s1
i | CC(C)CC(N)C(=O)NCCCNc1nsc2ccccc12 (stereo not drawn)
i | CCCNCC(O)COc1ccccc1C(=O)CCc1ccccc1 (stereo not drawn)
i | Cc1c(C(=O)N2CCN(c3ccc([N+](=O)[O-])cc3)CC2)sc2ncnc(N(C)c3ccccc3)c12
i | COc1cc(C=NNC(=O)c2ccco2)ccc1OCc1ccc([N+](=O)[O-])cc1
i | OC(CNC1CCCCC1)Cn1c2ccc(Br)cc2c2cc(Br)ccc21 (stereo not drawn)
i | CC(C)(C)OC(=O)NCC(=O)Oc1cc2oc(=O)cc(-c3ccccc3)c2cc1Cl
i | CCOc1ccc(S(=O)(=O)Oc2cccc3cccnc23)cc1
i | c1ccc2c(NC3CCCC3)nc(Nc3ccc4c(c3)OCO4)nc2c1
i | O=C(NCc1ccccc1)c1cnc(NCCCn2ccnc2)nc1NC1CCCC1

# Arranged by number of heavy atoms (ascending): 3 of the compounds above
P. yoelii liver | canonical_smiles
i | CC(C)CC(N)C(=O)NCCCNc1nsc2ccccc12 (stereo not drawn)
i | CCN(CC)CCCC(C)Nc1ccnc2cc3ccccc3cc12 (stereo not drawn)
i | CC(C)N(CC(=O)Nc1cc(C(C)(C)C)nn1-c1ccc(Cl)c(Cl)c1)C(=O)c1ccc(Cl)c(Cl)c1

# Remaining list, next part.
P. yoelii liver | canonical_smiles
i | O=C(Nc1ccc(C2=NCCN2)cc1)Nc1cccc(C(=O)Nc2ccc(C3=NCCN3)cc2)c1
i | O=C(O)c1ccc(S(=O)(=O)c2ccc3c(c2)C(=O)N(c2ccc(Sc4ccc([N+](=O)[O-])cc4)cc2)C3=O)cc1
i | COc1cccc(-c2ccc(O)c(CNC3CCCCCCC3)c2)n1
i | COc1ccc(/C=C(/C#N)C(=O)Nc2cccc3ccccc23)cc1
i | COc1ccc(CN(Cc2cc3cccc(C)c3nc2N2CCCC(O)C2)C(=O)c2ccc(OC)c(OC)c2)cc1 (stereo not drawn)
i | Cc1ccc(OCC(=O)Nc2cccc(-c3nc4ncccc4o3)c2)cc1C
i | CCc1c2ccc(C)n2cc[n+]1CC
i | CCOc1ccccc1NC(=O)C1C(c2ccccc2)=C1c1ccccc1
i | COc1cccc(CNCCCCCCCCCCCCNCc2cccc(OC)c2O)c1O
i | CCCCC(=O)Oc1ccccc1-c1nc2ccccn2c1NC(C)(C)CC(C)(C)C
i | COc1ccc(/C=C(\NC(=O)c2ccccc2Br)C(=O)N2CC3CC(C2)c2cccc(=O)n2C3)cc1OC (stereo not drawn)
i | CC(C)CNC(=O)c1cnc(NCCCN2CCCCC2C)nc1NC1CCCC1 (stereo not drawn)
i | C=CCc1cc([N+](=O)[O-])cc2c1OC1(C=C2)N(c2ccccc2)c2ccccc2C1(C)C (stereo not drawn)
i | CC(=O)N1CCC(N(C(=O)Nc2c(F)cccc2F)C(C)C)CC1
i | CC(=O)NCCc1nc2ccccc2n1Cc1ccc(C(C)C)cc1
0.383µM* | Clc1cccc(Nc2nc(NCc3ccco3)c3ccccc3n2)c1
i | O=C(NC1CC1)C1CCN(S(=O)(=O)c2ccc(Cl)cc2)CC1
i | O=C(Nc1c(C(=O)Nc2cccc(Cl)c2)oc2ccccc12)c1cc(-c2ccccc2O)n[nH]1
i | Cc1cc(C)cc(C(=O)Nc2c3c(nn2-c2cccc(C)c2C)CS(=O)(=O)C3)c1
i | NC(=O)c1ccc2c(c1)N=C(/C=C/c1ccccc1)N(C1CC1)C2

# Only part of the results is shown; rates above refer to the full screens.
